From PubChem BioAssay
RanGTP-Impb inh: disruptors of Ran-importin-beta complex formation – biochemical, FRET, CFP-Ran, YFP-importin-beta, homogeneous, primary screen; cell-free CFP-Ran/YFP-importin-beta FRET ratio; inhibition, % (test concentration not listed); 300,000 tested, 1.1% active;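 active = most replicates above 15%; inconclusive = exactly half above 15%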;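 note: 0% = DMSO wells and 100% = Ran loaded with GDP instead of GTP; wells of about 40 µL received 100 nL stock; the first replicate is given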
Calb FLC: affects C. albicans growth with fluconazole. C. albicans CaCi-2 (fluconazole-resistant clinical isolate) + fluconazole, Alamar Blue growth, 48 h. growth inhibition, % (concentration not given with the values). 300,000 tested, 0.57% active;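 active = most replicates above 75%; inconclusive = exactly half above 75%; inactive = most below 75%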;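 note: all wells also contain fluconazole at 8 µg/ml as a sub-toxic cotreatment; 0% = median of DMSO wells and 100% = median of geldanamycin control wells; wells of about 8 µL received 7.5 nL stock; the first replicate is given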
Beta cell apopt: blocks beta cell apoptosis; INS-1E cytokine-induced death, ATP luminescence, 48 h; percent of positive-control rescue, neutral wells zero; protection from apoptosis, % (test concentration not listed); 300,000 tested, 0.8% active; AID 435005;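 active = all replicates at 75% or more, or half of them and the mean; inconclusive = half reach 75% but not the mean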;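 note: 0% = cytokine-treated negative control wells and 100% = positive control rescue; higher means more ATP so stronger rescue from cytokine killing; wells of about 40 µL received 100 nL stock; the first replicate is given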
Bfl-1 A1 inh: inhibitors of the anti-apoptotic protein A1, read as caspase activation; MEF A1-2A-BIM cells, Caspase-Glo 3/7 luminescence, 3 h; percent of clofoctol response, vehicle zero; caspase activation, % (concentration not given with the values); 330,000 tested, 0.066% active; AID 2462;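 active = over half of replicate activation scores above 10%, or exactly half above 10 with the replicate mean above 10; inconclusive = replicate mean below 10 yet half the replicates above 10; inactive = over half of replicates below 10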;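 note: wells of about 30 µL received 50 nL stock; many hits fall short of the cut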
AF4-AF9 inh: inhibitors of human MLL-AF4/AF9 interaction. AID 651704. AlphaScreen, biotin-AF4 peptide binding to FLAG-AF9. inhibition, % at 10 µM. 350,000 tested, 0.47% active. P42568;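 active = every replicate reaching a set inhibition limit, whatever the replicate mean, cut at about 25% in these data; inconclusive = mean inhibition reaches that limit but some replicates miss it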;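 note: 0% = plate neutral control median and 100% = total signal loss; the record names both 10 and 1 µM as test concentration; the first replicate is given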
Target sequence (P42568 whole entry, looked up): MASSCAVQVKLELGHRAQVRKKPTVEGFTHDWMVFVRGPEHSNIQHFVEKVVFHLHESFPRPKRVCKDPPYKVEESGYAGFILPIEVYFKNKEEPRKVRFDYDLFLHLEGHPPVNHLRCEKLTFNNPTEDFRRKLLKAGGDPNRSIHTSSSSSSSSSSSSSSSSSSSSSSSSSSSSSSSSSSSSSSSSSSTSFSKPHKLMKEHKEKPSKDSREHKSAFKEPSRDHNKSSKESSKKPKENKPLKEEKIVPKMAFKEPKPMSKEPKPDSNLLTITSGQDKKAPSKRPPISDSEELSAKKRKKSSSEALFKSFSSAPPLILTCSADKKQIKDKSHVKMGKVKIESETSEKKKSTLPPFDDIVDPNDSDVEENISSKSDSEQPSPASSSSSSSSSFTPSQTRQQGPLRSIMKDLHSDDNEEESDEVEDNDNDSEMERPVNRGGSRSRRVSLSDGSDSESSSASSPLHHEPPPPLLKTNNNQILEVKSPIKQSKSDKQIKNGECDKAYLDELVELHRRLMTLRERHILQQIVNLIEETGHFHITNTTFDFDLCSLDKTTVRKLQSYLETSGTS
T cruzi inh: blocks replication of Trypanosoma cruzi | T. cruzi beta-gal in NIH3T3, luminescence, 90 h | inhibition, % (no concentration beside the values) | 300,000 tested, 1.4% active;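 active = mean inhibition across valid replicates above about 55%, limit read from the data; inconclusive = mean below that limit but half or more replicates reach it; inactive = mean below it, under half of replicates reach it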;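 note: signal also drops with host cell toxicity which is not excluded here; 0% = plate median of DMSO wells and 100% = zero luminescence signal; higher percent means less beta-gal luminescence so fewer parasites; stock transfer was 50 nL into about 50 µL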
rRNA inh HTS: inhibitors of bacterial rRNA selective over humanized ribosomes | 350,000 tested, 1.6% active | GFP signal change (wild-type ribosome), % (no concentration beside the values) | E. coli WT GFP vs humanized-ribosome RFP mutants, fluorescence, 24 h; active compounds read low; DMSO median 0, no signal -100;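 active = significant combined selectivity score with lowered wild-type GFP, culture density cut under 30%, mutant RFP and density less affected; inactive = any of these conditions unmet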; note: one replicate is shown; some compounds called inactive have numbers as strong as hits
Vif A3G: HIV-1 Vif–A3G interaction blockers – biochemical, TR-FRET, GST-Vif 1-94, biotin-A3G peptide, dose response retest, primary screen (AID 1117319); one-dose inhibition, %; IC50 in µM for titrated hits; 260,000 tested, 0.57% active; TR-FRET GST-Vif / biotin-A3G peptide binding; higher % means a stronger effect; test concentration not given here; strong numbers were not always called active;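 active = above the screen mean plus three standard deviations and confirmed in dose response; inconclusive = results disagree or hit not tested in dose response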;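 note: Vif residues 1-94 fused to GST binding biotinylated APOBEC3G peptide 110-148; 0% = full assay without inhibitor and 100% = GST in place of GST-Vif; retest series ran down from 100 µM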
rRNA inh HTS OD600: also measured in rRNA inh HTS; calls as there; OD600 change, %; measured here: OD600 growth;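 optical density of the mix in the first replicate; 0 = DMSO median and -100 = no signal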
rRNA inh HTS RFP: recorded beside rRNA inh HTS, whose call it bears; RFP signal change, %; measured here: RFP humanized mutant strains;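 first replicate; 0 = DMSO median and -100 = no signal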
Numbers without * were called inactive; ? = inconclusive; nt = no result given; & = joins results of further samples. An excerpt; rates above refer to the full screens.

SMILES	rRNA inh HTS OD600	rRNA inh HTS	Calb FLC	AF4-AF9 inh	T cruzi inh	RanGTP-Impb inh	rRNA inh HTS RFP	Bfl-1 A1 inh	Beta cell apopt	Vif A3G
CC1CCCCN1C(=O)COC(=O)c1cc(-c2cccs2)nn1-c1ccccc1 (centres undefined)	-28	-10	nt	-0.4	nt	nt	4.0	0.0	-5	6%
O=C(NC1CCCC1)C(c1cccnc1)N(C(=O)c1csnn1)C1CCCC1 (centres undefined)	nt	nt	-1	nt	-5	10.0	nt	-0.1	-4	23%
Cc1ccc(Oc2ccccc2/C=N/O)cc1	nt	nt	16	nt	5	3.8	nt	0.5	0	26%
CC(C)(C)C(=O)N1CCC[C@@]1(CO)C(=O)O	nt	nt	-5	nt	-9	0.6	nt	0.6	-1	5%
Cc1cccn2c(=O)c3cc(C(=O)NCCN4CCOCC4)c(=N)n(CCN4CCOCC4)c3nc12	5	5	-17	4.8	-15	128*	-2.2	0.4	0	nt
O=C(Cc1cccc2ccccc12)N/N=C/c1ccc(OC(=O)/C=C/c2ccco2)cc1	nt	nt	-2	nt	-23	1.2	nt	-0.6	7	21%
Cc1ccc(S(=O)(=O)c2c(C)cc(C)nc2N2CCOCC2)cc1	-25	-21	-5	-0.1	6	-3.9	-3.1	0.2	-3	5%
O=C(NC1CCCCCC1)C1CCN(S(=O)(=O)c2c(Cl)cccc2Cl)CC1	-3	0	nt	-4.0	nt	nt	0.7	0.3	6	-3%
O=[N+]([O-])c1cccc(S(=O)(=O)NCc2ccccn2)c1	7	4	-13	-1.5	-2	?	-1.4	-0.1	nt	nt
COc1ccc(-n2nnnc2SCC(=O)N2CCN(C(=O)c3ccco3)CC2)cc1OC	7	18	-5	-2.2	6	1.0	1.7	2.0	1	nt
Cc1cccc2nc(CSc3nnc(N)s3)cn12	-2	5	1	-0.7	-6	-6.0	1.6	0.0	-1	5%
O=c1oc2cc(OCc3ccc(F)cc3F)ccc2cc1-c1ccccn1	nt	nt	13	nt	-8	4.4	nt	0.8	1	13%

(continued)
SMILES	rRNA inh HTS OD600	rRNA inh HTS	Calb FLC	AF4-AF9 inh	T cruzi inh	RanGTP-Impb inh	rRNA inh HTS RFP	Bfl-1 A1 inh	Beta cell apopt	Vif A3G
CC(C)(C)N1CC(c2nc3ccccc3n2Cc2ccc(F)cc2)CC1=O (centres undefined)	nt	nt	-17	nt	7	-1.0	nt	-1.1	2	-3%
CC1CCN(C(=O)/C(=C\c2ccco2)NC(=O)c2ccccc2)CC1	2	2	1	2.9	9	6.6	0.4	1.1	-7	nt
O=C(c1ccc([N+](=O)[O-])cc1)N1CCC(Cc2ccccc2)CC1	-30	-27	-2	2.4	14	-2.8	-9.0	-0.3	-7	-3%
Cc1c(Cl)cccc1NC(=S)NCCC(c1ccccc1)c1ccccc1	nt	nt	-34	nt	20	1.3	nt	1.1	-2	-3%
COCc1cc(C)nc(SCC[N+](C)(C)CC(=O)c2ccc(Br)cc2)c1C#N	-9.4*	-30*	-27	3.2	-14	-5.7	6.1*	0.4	-4	nt
CCN(C[C@H]1N[C@@](Cc2ccccc2)(C(=O)OC)[C@H]2C(=O)N(Cc3ccccc3)C(=O)[C@@H]12)C(=O)c1ccccc1	-18	-1	nt	-1.1	nt	nt	-1.6	-0.7	-5	-1%
CCOC(=O)[C@H]1[C@H]2COc3cc(OC)ccc3[C@@H]2N2C(=O)CN(CC3CCCO3)C(=O)[C@@]12C (some centres undefined)	3	3	nt	-2.2	nt	nt	4.0	0.4	-2	nt
CCCn1cc(S(=O)(=O)c2ccc(F)cc2)c(=O)c2cc(OCC)ccc21	11	22	4	-0.1	5	-2.4	4.5	-0.9	10	-10%
CCCCCc1ccc(OCCCC[n+]2ccccc2)c(CCCCC)c1	nt	nt	100*	nt	49	1.1	nt	0.0	87*	18%
O=c1c(C(c2ccc(Br)cc2)c2c(O)nc3n(c2=O)CCS3)c(O)nc2n1CCS2	6	2	-6	1.7	-6	-1.1	-3.7	-0.1	-1	-1%
COc1ccc(NC(=O)c2oc3ccccc3c2C)cn1	11	6	19	-2.0	12	7.6	3.2	-2.6	-7	nt
COc1ccc(OCc2nnc(SCC(=O)Nc3ccc(C)cc3)o2)cc1	10	3	9	-7.0	-2	4.6	-1.4	0.3	1	nt

Later entries:
SMILES	rRNA inh HTS OD600	rRNA inh HTS	Calb FLC	AF4-AF9 inh	T cruzi inh	RanGTP-Impb inh	rRNA inh HTS RFP	Bfl-1 A1 inh	Beta cell apopt	Vif A3G
O=C(c1cnn2c(C(F)(F)F)cc(-c3cccs3)nc12)N1CCN(Cc2ccccc2)CC1	nt	nt	9	nt	75*	7.1	nt	1.8	15	7%
Oc1ccccc1-c1cc(-c2ccc(F)cc2)n[nH]1	-35	-10	4	-0.6	0	-5.4	21	-4.7	3	nt
COC(=O)c1sccc1NC(=O)CC1NCCNC1=O (centres undefined)	nt	nt	-2	2.2	-21	7.8	nt	-0.1	-3	16%
CCCCC[C@@H](O)c1cc2ccccc2c(=O)o1	-14	-12	nt	0.7	nt	nt	-4.6	0.4	5	nt
Cn1nc(C(=O)NC2CCCCC2)c2c1-c1ccccc1SC2	4	1	-4	-1.2	11	3.7	-0.5	-0.3	5	nt
CC(/C=C1\SC(=S)N(CCCC(=O)Nc2ccc(C(=O)O)cc2)C1=O)=C\c1ccccc1	nt	nt	0	nt	-7	2.0	nt	1.3	3	?
Cc1ccc(C(=O)NCC(=O)N2CCN(c3cccc(Cl)c3)CC2)s1	nt	nt	nt	-6.4	nt	nt	nt	-1.0	-3	12%
CCn1c(SCC(=O)Nc2nc(-c3ccccc3)cs2)nnc1-c1ccccc1	nt	nt	3	nt	25	2.2	nt	-0.1	-9	-3%
Cc1ccc(/C=N/N2CCN(Cc3cccc4ccccc34)CC2)s1	7	0	-21	12	12	-2.2	-5.0	-0.2	-2	nt
Cc1cc(C)c2c(n1)sc1c(N3CCN(C)CC3)ncnc12	-18	-6	-3	nt	37	0.5	3.3	-0.1	9	-15%
Cc1ccc(S(=O)(=O)N2CCCCC2)cc1C(=O)N1CCN(c2ccccn2)CC1	-3	0	-33	-0.3	4	8.8	-2.3	1.1	-7	-7%
CCOC(=O)Cn1nc(C)c(NC(=O)c2ccc(Br)o2)c1C	3	4	-3	-11	-6	2.2	-3.0	1.1	2	nt

The list goes on.
SMILES	rRNA inh HTS OD600	rRNA inh HTS	Calb FLC	AF4-AF9 inh	T cruzi inh	RanGTP-Impb inh	rRNA inh HTS RFP	Bfl-1 A1 inh	Beta cell apopt	Vif A3G
C=CCOc1c(Cl)cc(CNc2nccs2)cc1OC	-6	15	-41	-2.3	4	4.3	1.3	-0.3	-2	nt
Cc1cc(=O)[nH]c(SCC(=O)NC(C)C2CC3CCC2C3)c1C#N (centres undefined)	2	-3	33	-4.0	2	-1.1	-1.2	0.0	-3	?
O=C(NCC(=O)N(CC1CCCO1)C(C(=O)NC1CCCCC1)c1ccccc1)c1cccs1 (centres undefined)	9	7	-9	-39	-13	0.2	0.2	0.8	-3	?
COc1ccccc1C(C(=O)NCc1ccccc1)N(C(=O)c1csnn1)C1CC1 (centres undefined)	13	6	3	-5.1	-5	-1.8	-0.9	1.0	-2	nt
COc1ccc(S(=O)(=O)Nc2ccc3c(c2)CC(=O)N([C@@H](C)CO)C[C@@H](C)[C@@H](CN(C)Cc2ccccc2)O3)cc1	-7&-56	-4&-11	nt	3.2&-8.3	nt	nt	5.0&29	-0.3	-6	nt
CC(C)(C)Cc1nnc(NS(=O)(=O)Cc2ccccc2)s1	nt	nt	-7	nt	-20	-1.3	nt	-0.9	-1	1%
Cc1ccnc(NC(=O)c2cc(S(=O)(=O)N3CCCCC3)ccc2Cl)c1	nt	nt	7	nt	4	0.1	nt	0.2	-4	-5%
Cc1ccc(C)c(NC(=O)CN2C(=O)CC(C)S(=O)(=O)c3ccccc32)c1 (centres undefined)	7	0	1	-3.6	0	6.8	-2.8	1.5	-3	-6%
Cc1ccc(C(=O)c2coc3ccc(O)cc23)cc1	-6	-7	2	-0.8	-1	-2.5	2.1	-13	-14	-2%
COc1ccccc1C1c2ccc3ccccc3c2Oc2ncn(CCCO)c(=N)c21 (centres undefined)	nt	nt	19	nt	41	1.1	nt	-0.5	13	-12%
CC(=O)c1ccc(-n2nncc2C(C)(C)C)cc1	-6	4	-4	-95	-1	?	0.0	0.1	-10	20%
Cc1cccc(C)c1NC(=O)COC(=O)c1cc(=O)[nH]c2ccccc12	12	6	nt	-2.5	nt	nt	-1.4	0.4	-10	-6%

The listing continues.
SMILES	rRNA inh HTS OD600	rRNA inh HTS	Calb FLC	AF4-AF9 inh	T cruzi inh	RanGTP-Impb inh	rRNA inh HTS RFP	Bfl-1 A1 inh	Beta cell apopt	Vif A3G
CC1(c2ccccc2)NC(=O)N(CC(=O)Nc2cccc(/C=C/c3ccccn3)c2)C1=O (centres undefined)	-30	-18	11	1.6	-4	4.2	-0.9	0.1	1	-5%
OCCC1CN(Cc2cccn2-c2cccnc2)CCN1C1CCCC1 (centres undefined)	7	5	-2	5.2	4	-1.4	-6.0	0.3	-3	-9%
Cc1cc(-c2nnc(CCC(=O)NCc3cccc(C(F)(F)F)c3)o2)no1	10	5	-1	0.2	5	4.2	-1.0	0.8	-10	nt
CC1(C)CC(=O)c2cnc(NC(=O)Cc3ccc(Cl)cc3)nc2C1	nt	nt	-1	nt	2	1.9	nt	0.1	nt	12%
Nc1nc2n(n1)C1(CCCCC1)C1=C(CCCC1)N2	nt	nt	-4	nt	-5	7.7	nt	-0.7	5	30%
O=C(NCc1ccc(OC(F)(F)F)cc1)C1CC2Cn3c(nc4ccccc43)C2N1c1ccccc1 (centres undefined)	-3	3	4	-5.9	21	7.4	-1.8	1.3	-7	nt
CCCCN1CC(O)=C(c2nc(-c3ccc(Cl)cc3)cs2)C1=N	nt	nt	-8	nt	17	2.6	nt	0.5	19	-8%
COc1ccc(NC(=O)CN(C)C(=O)CN2C(=O)C3CCCCC3C2=O)cc1 (centres undefined)	5	10	6	-0.4	-6	-4.8	2.0	0.2	-4	-3%
CCOc1ccccc1NC(=O)COc1ccc(S(=O)(=O)N2CCCC2)cc1	2	11	6	1.0	16	0.9	4.2	-1.0	nt	-7%
O=C(COC(=O)CCSc1ccc(Cl)cc1)NCc1ccc(Cl)cc1	7	6	-24	-4.2	-7	-1.6	1.7	-1.1	2	nt
